STAT3 binder = binds human STAT3 on microarray; P40763; Small molecule microarray, His-STAT3 binding, anti-His fluorescence; calls only; 17,000 tested, 0.2% active; AID 624138;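 active = compounds whose four printed spots each show fluorescence over background unusually high for their array block, chance value under 7%; compounds were printed on slides so no solution concentration is given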;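 also: about 2 pmol printed per array spot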
ID4 SMM = binds human ID4 protein on microarray. P47928. small molecule microarray, Flag-ID4 binding, fluorescence F/B. calls only. 31,000 tested, 1.2% active;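 active = spot signal over background at p below 0.07 in all four prints; compounds were printed on slides so no solution concentration is given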;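 also: a binder raises fluorescence above local background on the spot; about 2 pmol printed per array spot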
Target sequence (P47928 whole entry, looked up): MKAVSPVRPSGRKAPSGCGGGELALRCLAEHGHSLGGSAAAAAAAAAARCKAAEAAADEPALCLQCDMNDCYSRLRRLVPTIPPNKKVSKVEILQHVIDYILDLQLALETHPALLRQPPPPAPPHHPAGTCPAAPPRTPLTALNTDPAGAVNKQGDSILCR
mut p53 SMM = mutant p53 (human) binding | small molecule microarray binding, anti-GST fluorescence | 17,000 tested, 0.4% active | AID 624136 | calls only;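 active = compounds whose four printed spots each glow above background more than chance allows, each with a p-value under 7%; compounds were printed on slides so no solution concentration is given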;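 also: about 2 pmol printed per array spot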
Myc binder = binds human c-Myc on microarray. small molecule microarray, His-c-Myc binding, anti-His fluorescence. calls only. 17,000 tested, 1.5% active;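 active = spot fluorescence over background with P-value below 7% in all four replicate spots, showing protein binding; compounds were printed on slides so no solution concentration is given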;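 also: score is binary with 100 for all four spots passing and 0 otherwise; about 2 pmol printed per array spot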
Target sequence (P01106 whole entry, looked up): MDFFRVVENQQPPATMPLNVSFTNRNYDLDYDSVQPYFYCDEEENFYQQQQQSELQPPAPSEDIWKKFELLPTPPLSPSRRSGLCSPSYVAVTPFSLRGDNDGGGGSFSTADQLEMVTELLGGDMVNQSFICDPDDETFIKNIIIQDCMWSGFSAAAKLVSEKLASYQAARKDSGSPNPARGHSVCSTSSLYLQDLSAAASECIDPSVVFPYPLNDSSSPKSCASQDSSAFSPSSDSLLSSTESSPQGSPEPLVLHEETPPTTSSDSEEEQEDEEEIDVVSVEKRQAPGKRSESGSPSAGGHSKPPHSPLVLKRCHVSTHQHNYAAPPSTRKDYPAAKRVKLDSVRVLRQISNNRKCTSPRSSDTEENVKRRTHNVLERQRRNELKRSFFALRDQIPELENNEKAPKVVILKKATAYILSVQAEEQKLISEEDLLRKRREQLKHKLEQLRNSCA
Calls only; i = inactive; x = no result given; + = active, no number. These rows are one share of the data; rates above refer to the full screens.

Molecule | STAT3 binder | mut p53 SMM | Myc binder | ID4 SMM
Cc1noc(C)c1S(=O)(=O)Nc1ccc2c(c1)C(=O)N([C@@H](C)CO)C[C@@H](C)[C@@H](CN(C)C(=O)NC(C)C)OCCCC[C@@H](C)O2 | i | i | i | i
COc1ccc(COCC23N=C4SCCCN4[C@H](c4ccccc4O2)[C@H]3CO[Si](C)(C)C(C)(C)C)cc1 | i | i | i | i
CNC[C@@H]1Oc2ccc(NC(=O)Nc3ccc(F)cc3)cc2CC(=O)N([C@H](C)CO)C[C@@H]1C | i | i | i | i
COc1ccccc1NC(=S)NCc1cccnc1 | i | i | i | i
C=C(CO)C1Cc2cc(C(C)=O)ccc2O1 (stereo not drawn) | i | i | i | i
O=C1C=CC(=O)C2=C1C1c3ccccc3C2c2ccccc21 | i | i | i | i
C[C@H]1CN([C@@H](C)CO)C(=O)c2cccc(NS(=O)(=O)c3cccs3)c2O[C@H]1CN(C)Cc1ccc(-c2ccccc2)cc1 | i | i | i | i
CNC[C@@H]1Oc2c(NC(=O)c3ccc(-c4nccs4)cc3)cccc2C(=O)N([C@H](C)CO)C[C@H]1C | i | i | i | +
COc1ccc2oc(=O)c(C(=O)NCc3ccco3)cc2c1 | i | i | i | i
Cc1nnc(SCC2=NN(c3nc4ccccc4s3)C(=O)C2)s1 | i | i | i | i
C[C@H]1CCCCO[C@@H](CN(C)CC2CC2)[C@@H](C)CN([C@@H](C)CO)C(=O)c2cc(NS(=O)(=O)c3ccccc3)ccc2O1 | i | i | i | i
C[C@@H]1CCCCO[C@H](CN(C)C)[C@@H](C)CN([C@@H](C)CO)C(=O)c2cc(NC(=O)Cc3ccccc3)ccc2O1 | i | i | i | i
CC(=O)Nc1ccc(NC(=O)CSc2nccc(=O)[nH]2)cc1 | i | i | i | i
Cc1ccnc(SCC(=O)Nc2sc3c(c2C(=O)Nc2ccccc2)CCCC3)n1 | i | i | i | i
C[C@H]1CN([C@@H](C)CO)C(=O)c2cccc(NS(=O)(=O)c3ccccc3)c2O[C@H]1CN(C)C(=O)Nc1ccc(C(F)(F)F)cc1 | i | i | i | i

Further results follow.
Molecule | STAT3 binder | mut p53 SMM | Myc binder | ID4 SMM
C[C@H](CO)N1C[C@H](C)[C@H](CN(C)C(=O)CCCN(C)C)OCCCC[C@H](C)Oc2ccc(NC(=O)Cc3ccccc3)cc2C1=O | i | i | i | i
Cc1ccc(S(=O)(=O)Nc2ccc3c(c2)CC(=O)N([C@@H](C)CO)C[C@H](C)[C@H](CN(C)Cc2ccncc2)O3)cc1 | i | i | i | i
CC(C)NC(=O)Nc1ccc2c(c1)C(=O)N([C@H](C)CO)C[C@H](C)[C@H](CN(C)S(=O)(=O)c1cccs1)OCCCC[C@@H](C)O2 | i | i | i | i
Cc1noc(C)c1NC(=O)Nc1ccc2c(c1)C(=O)N([C@H](C)CO)C[C@@H](C)[C@@H](CN(C)C(=O)NC(C)C)OCCCC[C@@H](C)O2 | i | i | i | i
Cc1ccc(S(=O)(=O)N(CC(=O)Nc2ccc(C(N)=O)cc2)C2CCCCC2)cc1 | i | i | i | i
CC(C)NC(=O)N(C)C[C@@H]1OCCCC[C@@H](C)Oc2ccc(NC(=O)Nc3ccc4c(c3)OCO4)cc2C(=O)N([C@H](C)CO)C[C@@H]1C | i | i | i | i
C[C@H]1CN([C@@H](C)CO)C(=O)Cc2cc(NS(C)(=O)=O)ccc2O[C@H]1CN(C)CC1CC1 | i | i | i | i
CC(C)NC(=O)N(C)C[C@@H]1Oc2c(NS(=O)(=O)c3ccccc3)cccc2C(=O)N([C@H](C)CO)C[C@H]1C | i | i | i | i
C[C@@H]1CN([C@@H](C)CO)C(=O)c2cc(N(C)C)ccc2O[C@@H](C)CCCCO[C@H]1CN(C)C | i | i | i | i
COc1ccc(CN(C)C[C@@H]2Oc3c(NS(=O)(=O)c4ccc(OC)cc4)cccc3C(=O)N([C@@H](C)CO)C[C@H]2C)cc1 | i | i | i | i
COc1ccc(S(=O)(=O)Nc2ccc3c(c2)C(=O)N([C@@H](C)CO)C[C@@H](C)[C@H](CN(C)S(=O)(=O)c2ccc(OC)cc2)O3)cc1 | i | i | i | i
Cc1cc(NC(=O)CCN2CCC(C(N)=O)CC2)ccc1Br | i | i | i | i
Cc1cc2nnc(SCC(=O)Nc3ccc(Cl)c(C(F)(F)F)c3)n2c2ccccc12 | i | i | i | i
C[C@@H]1CN([C@@H](C)CO)C(=O)c2cccc(NS(C)(=O)=O)c2O[C@@H]1CN(C)S(=O)(=O)c1cccs1 | i | i | i | i
C[C@@H]1CN([C@H](C)CO)C(=O)Cc2cc(NC(=O)NC3CCCCC3)ccc2O[C@@H]1CN(C)C(=O)Nc1cccc2ccccc12 | i | i | i | i

The results go on.
Molecule | STAT3 binder | mut p53 SMM | Myc binder | ID4 SMM
COC(=O)COc1cccc(NC(=O)c2ccc(NC(=O)c3ccco3)cc2)c1 | i | i | i | i
CCc1c(C)sc(NC(=O)COc2ccc(Cl)cc2)c1C(N)=O | i | i | i | i
COC(=O)C(CC#Cc1ccc2c(c1)[C@]1(C(=O)N2)[C@H](C(=O)NC[C@H](O)c2ccccc2)[C@H]2C(=O)O[C@H](c3ccccc3)[C@H](c3ccccc3)N2[C@@H]1c1ccccc1OCCO)C(=O)OC | i | i | i | x
Cc1nn(Cc2ccc(F)cc2)c(C)c1NC(=O)C1CC(c2c(F)cccc2Cl)=NO1 (stereo not drawn) | i | i | i | i
Cn1c(COc2cccc3cccnc23)nnc1SCC(N)=O | i | i | i | i
C[C@H]1CN([C@@H](C)CO)C(=O)Cc2cc(NC(=O)CCC(F)(F)F)ccc2O[C@@H]1CN(C)Cc1ccc2c(c1)OCO2 | i | i | i | i
C[C@H]1CCCCO[C@@H](CN(C)CC2CCCCC2)[C@@H](C)CN([C@@H](C)CO)C(=O)c2cc(NC(=O)C3CCCCC3)ccc2O1 | i | i | i | x
O=C(c1cccc(NS(=O)(=O)c2cccc([N+](=O)[O-])c2)c1)N1CCOCC1 | i | i | i | i
COc1ccc(S(=O)(=O)N(C)C[C@@H]2Oc3ccc(NC(=O)Cc4ccccc4)cc3CC(=O)N([C@H](C)CO)C[C@H]2C)cc1 | i | i | i | i
COc1ccc(CN(C)C[C@H]2OCCCC[C@H](C)Oc3ccc(NC(=O)C4CCCCC4)cc3C(=O)N([C@@H](C)CO)C[C@@H]2C)cc1 | i | i | i | x
O=C(CCCc1ccc(-c2ccccc2F)cc1)Nc1ccc(O)cc1 | i | i | i | i
COCCOC(=O)C1=C(C)NC(C)=C(C(=O)OC/C=C/c2ccccc2)C1c1cccc([N+](=O)[O-])c1 (stereo not drawn) | i | i | i | i
C[C@@H]1CN([C@@H](C)CO)C(=O)Cc2cc(NC(=O)C3CC3)ccc2O[C@@H]1CN(C)Cc1ccncc1 | i | i | i | i
Cc1nc(SCC(=O)N2c3ccccc3Sc3ccccc32)nc2c1CCCC2 | i | i | i | i
COc1cccc2cc(C(=O)Nc3cccc(Cn4cccn4)c3)c(=O)oc12 | i | i | i | i

(further entries)
Molecule | STAT3 binder | mut p53 SMM | Myc binder | ID4 SMM
Cc1noc(C)c1NC(=O)N(C)C[C@@H]1Oc2ccc(NC(=O)c3ccncc3)cc2CC(=O)N([C@@H](C)CO)C[C@@H]1C | i | i | i | i
CC1CCN(S(=O)(=O)c2cccc(C(=O)N(Cc3ccccc3)c3ccccn3)c2)CC1 | i | i | i | i
Cc1cc(C(F)F)n2nc(C(=O)Nc3c(C)nn(Cc4ccc(Cl)cc4)c3C)nc2n1 | i | i | i | i
CC(C)CC(=O)O[C@@H]1OC=C(CO[C@@H]2O[C@H](CO)[C@@H](O)[C@H](O)[C@H]2O)[C@H]2C[C@H](O)[C@@](C)(O)[C@@H]12 | i | i | i | i
C[C@@H]1CCCCO[C@@H](CN(C)C(=O)C2CCCCC2)[C@@H](C)CN([C@H](C)CO)C(=O)c2cc(NC(=O)c3ccncc3)ccc2O1 | i | i | i | i
C[C@@H]1CN([C@@H](C)CO)C(=O)CCCn2cc(nn2)CO[C@H]1CN(C)S(=O)(=O)c1cn(C)cn1 | i | i | i | i
C[C@@H]1CN([C@@H](C)CO)C(=O)Cc2cc(NC(=O)Nc3ccc(C(F)(F)F)cc3)ccc2O[C@H]1CN(C)Cc1ccncc1 | i | i | i | i
Cc1noc(C)c1S(=O)(=O)Nc1cccc2c1O[C@@H](CN(C)C(=O)Nc1ccc(F)cc1)[C@@H](C)CN([C@H](C)CO)C2=O | i | i | i | i
CC(C)NC(=O)N(C)C[C@@H]1OCCCC[C@H](C)Oc2ccc(NC(=O)c3ccncc3)cc2C(=O)N([C@H](C)CO)C[C@@H]1C | i | i | i | i
COc1ccc(-c2oc3cc(OC)c(OC)c(O)c3c(=O)c2OC)cc1OC | i | i | i | i
C[C@@H]1CCCCO[C@@H](CN(C)S(=O)(=O)c2ccccc2)[C@@H](C)CN([C@@H](C)CO)C(=O)c2cc(NS(=O)(=O)c3cccs3)ccc2O1 | i | i | i | x
COC(=O)c1cccc2nc3c(C(C)O)cccc3nc12 (stereo not drawn) | i | i | + | i
O=C(C1=C[C@@H](c2ccc3c(c2)Cc2ccccc2-3)C[C@@H](OCCCCO)O1)N1CCCCC1 | i | i | i | i
Cc1sc2nc(SCC(=O)NCC3CCCO3)n(-c3ccccc3)c(=O)c2c1C (stereo not drawn) | i | i | i | i
CC(C)=CCc1c(O)ccc2c1OC(c1ccc(O)c(O)c1)CC2=O (stereo not drawn) | i | i | i | i

Remaining list, next part:
Molecule | STAT3 binder | mut p53 SMM | Myc binder | ID4 SMM
C[C@H](CO)N1C[C@H](C)[C@@H](CN(C)Cc2ccc(C(F)(F)F)cc2)Oc2ccc(NC(=O)Cc3ccccc3)cc2CC1=O | i | i | i | i
C[C@H](CO)N1C[C@H](C)[C@@H](CN(C)C(=O)c2ccncc2)OCCCC[C@H](C)Oc2ccc(NC(=O)CCC(F)(F)F)cc2C1=O | i | i | i | i
C[C@@H]1CN([C@@H](C)CO)C(=O)CCCn2cc(nn2)CO[C@H]1CN(C)C(=O)Nc1ccc2c(c1)OCO2 | i | i | i | i
C[C@H]1CN([C@@H](C)CO)C(=O)CCCn2cc(nn2)CO[C@@H]1CN(C)Cc1ccc2c(c1)OCO2 | i | i | i | i
C[C@@H]1CCCCO[C@H](CN(C)C(=O)Nc2ccccc2)[C@H](C)CN([C@H](C)CO)C(=O)c2cc(NC(=O)c3ccccc3)ccc2O1 | i | i | i | i
COc1ccc(COCC23N=C4SCc5ccccc5C(=O)N4[C@H](c4ccccc4O2)[C@H]3CO)cc1 | i | i | i | i
Cc1ccc2nc(-c3cccnc3)cc(C(=O)Nc3ccc(CC(=O)O)cc3)c2c1 | i | i | i | i
C[C@H](CO)N1C[C@H](C)[C@H](CN(C)Cc2ccc(C(F)(F)F)cc2)Oc2c(cccc2N(C)C)C1=O | i | i | i | i
C[C@H](CO)N1C[C@H](C)[C@@H](CN(C)S(=O)(=O)c2ccc(Cl)cc2)Oc2ccc(NC(=O)Cc3cn(C)c4ccccc34)cc2CC1=O | i | i | i | x
COc1ccc(OC)c(S(=O)(=O)N2CCC(C(=O)Nc3ccccc3SC)CC2)c1 | i | i | i | i
COc1ccc([Si](C)(C)[C@H]2[C@H](CCO)O[C@@]3(C(=O)N(c4ccccc4)c4ccccc43)[C@@H]2C)cc1 | i | i | i | x
C[C@@H]1CN([C@H](C)CO)C(=O)c2cccc(N(C)C)c2O[C@H]1CN(C)Cc1ccccc1 | i | i | i | i
Cc1c(NC(=O)CN2C(=O)c3cccc4cccc2c34)c(=O)n(-c2ccccc2)n1C | i | i | i | i
C[C@H](CO)N1C[C@H](C)[C@@H](CN(C)C)OCCCC[C@H](C)Oc2ccc(NS(=O)(=O)c3ccc(Cl)cc3)cc2C1=O | i | i | i | i
C[C@H](CO)N1C[C@H](C)[C@H](CN(C)S(=O)(=O)c2ccc(F)cc2)Oc2ccc(NC(=O)Nc3ccc4c(c3)OCO4)cc2C1=O | i | i | i | i

Part of the list above in order of SMILES length, smallest number first:
Molecule | STAT3 binder | mut p53 SMM | Myc binder | ID4 SMM
CCc1c(C)sc(NC(=O)COc2ccc(Cl)cc2)c1C(N)=O | i | i | i | i
COc1ccc(OC)c(S(=O)(=O)N2CCC(C(=O)Nc3ccccc3SC)CC2)c1 | i | i | i | i
Cc1ccc(S(=O)(=O)Nc2ccc3c(c2)CC(=O)N([C@@H](C)CO)C[C@H](C)[C@H](CN(C)Cc2ccncc2)O3)cc1 | i | i | i | i

Next section.
Molecule | STAT3 binder | mut p53 SMM | Myc binder | ID4 SMM
C[C@H]1CN([C@@H](C)CO)C(=O)Cc2cc(NC(=O)Nc3ccc4c(c3)OCO4)ccc2O[C@@H]1CN(C)CC1CCCCC1 | i | i | i | x
CC(=O)Oc1cc(C(C)C)c(OCCN(C)C)cc1C | i | i | i | i
CC(=O)N[C@@H](C(=O)O[C@H]1CCC(C)(C)[C@@H]2CCC3=C(COC3=O)[C@@]12C)C(C)C | i | i | i | i
CC(C)NC(=O)N(C)C[C@H]1OCCCC[C@@H](C)Oc2ccc(NC(=O)CCCN(C)C)cc2C(=O)N([C@@H](C)CO)C[C@@H]1C | i | i | i | i
C[C@@H]1CN([C@@H](C)CO)C(=O)c2cccc(NS(=O)(=O)c3ccc(Cl)cc3)c2O[C@H]1CN(C)C | i | i | i | i
C[C@H](CO)N1C[C@H](C)[C@@H](CN(C)C(=O)Nc2cccc3ccccc23)OCc2cn(nn2)CCCC1=O | i | i | i | i

Assay outcomes from PubChem.
